# Assay outcomes as filed in PubChem.
# Biofilm kill mix: mixtures killing C. albicans biofilm; C. albicans biofilm persisters + clotrimazole, fluorescence viability; primary screen in compound mixtures of four per well; inhibition, % at 7.6 µM; 0.02% of 120,000 active;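 active = inhibition above 30.3% in the primary screen of four-compound pools, then above 30% when the compound was retested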;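 also: compounds exposed to preformed 24 h biofilms for 48 h; the number belongs to the whole pool; some results filed as inactive read as strong as hits; inactives centre near 12; 0% = biofilm with clotrimazole alone and 100% = kill control; retested singly at about 60 µM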
#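 System: C. albicans CAF4-2 wild-type biofilms; Medium: RPMI/MOPS medium, pH 7.0; Reagent: Clotrimazole, 50 µg/mL; Times: biofilm formation 24 h, compound exposure 48 h, 37 °C; Detection: 2-h Alamar Blue fluorescence, 535/590 nm excitation/emission; Evaluation: percent inhibition of biofilm viability.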
# * hit, by the source's call. This is a subset, so the mix of outcomes need not match the whole.
nr	SMILES	Biofilm kill mix
1	CCC(C)(C)n1nnnc1C(c1ccc(O)cc1)N1CCc2ccccc2C1 (centres undefined)	3
2	O=C(CCC(=O)c1cccs1)Nc1ccc(N2CCCCC2)cc1	10
3	COc1cccc(NC(=O)c2cc([N+](=O)[O-])ccc2NC(=O)CNCC2CCCO2)c1 (centres undefined)	15
4	O=C(c1cccc(C(F)(F)F)c1)c1c[nH]c(C(=O)NCCCN2CCOCC2)c1	19
5	NC(=NC(=O)c1ccccc1)N1CCN(C(c2ccccc2)c2ccccc2)CC1	15
6	CCOC(=O)N1CCN(C(=S)NC(=O)c2cc(Br)ccc2Cl)CC1	3
7	O=C(CN1CCN(Cc2ccc(Cl)cc2)CC1)N/N=C/c1ccncc1	7
8	CSc1nnnn1-c1c(C)cc(C)cc1C	19
9	Cn1c(=O)cc(N)n(Cc2ccccc2)c1=O	19
10	COc1ccc(N2CCN(C(=O)CSc3nc4[nH]ncc4c(=O)n3-c3cccc4ccccc34)CC2)cc1	10
11	CCc1cc(-c2onc(C)c2-c2cscn2)c(O)cc1OC	11
12	Cn1nc(OCC(=O)O)cc1C(F)(F)F	20
13	O=C(NCC1CCCO1)C(c1cccs1)N(Cc1cccs1)C(=O)Cn1nnc(-c2cccs2)n1 (centres undefined)	12
14	Cc1cc(C)nc(/N=C(\NC(=O)C(C)(C)C)Nc2ccccc2)n1	21
15	Cc1ccc(NC(=O)C2CCN(S(=O)(=O)c3c(C)noc3/C=C/c3ccco3)CC2)nc1	18

# (further entries)
nr	SMILES	Biofilm kill mix
16	CN1CCN(CC(=O)Nc2ccc([N+](=O)[O-])cc2Br)CC1	1
17	O=C(c1cnn(-c2ccccc2)c1-n1cccc1)N1CCN(C2CCCCC2)CC1	7
18	Cc1ccc(NC2=C(Cl)C(=O)c3ccccc3C2=O)cc1	10
19	CCN1C(=O)C(CC(=O)NCCc2ccccc2)N(NC(=O)c2cccnc2)C1=S (centres undefined)	7
20	COc1ccc(CCN(C)C(=O)c2ccc(S(=O)(=O)NCc3ccco3)cc2)cc1OC	6
21	CCOC(=O)CN(Cc1sccc1C)C(=O)Nc1ccc(OC)cc1OC	3
22	Cc1ccc2oc(Nc3nc(C)c(C)c(C)n3)nc2c1	6
23	CCOC(=O)CON1C(=O)C(=O)N(OCC(=O)OCC)[C@H]2CCCC[C@H]21	12
24	Cc1cc(=O)[nH]c(=O)n1Cc1ccccc1	13
25	CCn1c2ccccc2c2cc(NC(=O)COC(=O)c3cc(Cl)c(N)cc3OC)ccc21	22
26	CCN(CC)C(=O)C(=O)c1cn(CC(=O)N2CCc3ccccc3C2)c2ccccc12	14
27	CCOC(=O)c1ccc(NC(=O)COC(=O)Cc2csc(-c3ccccc3)n2)cc1	-6
28	Cc1cc(C(=O)N/N=C/c2ccc([N+](=O)[O-])o2)c(C)o1	21
29	CC(C)CN1C=C2C(=O)C(C)(OC(=O)CCc3ccccc3)C(=O)C=C2C=C1c1ccc(C#N)cc1 (centres undefined)	17
30	CN(C(=O)COc1ncnc2sccc12)c1ccccc1	-3

# Along the list, from the results shown:
# Biofilm kill mix for nos. 17 to 23: 7, 10, 7, 6, 3, 6, 12

# Remaining list, next part
nr	SMILES	Biofilm kill mix
31	COc1cc(Cl)c(C)cc1NC(=O)Cn1c(NCCO)nc2ccccc21	12
32	Oc1ccc(-c2n[nH]c(=S)n2-c2ccc3c(c2)OCCO3)c(O)c1	9
33	COc1ccc(NC(=O)c2ccc3c(=O)n(-c4ccc(OC)cc4OC)c(=S)[nH]c3c2)c(OC)c1	9
34	CC(=O)Nc1ccc(S(=O)(=O)N2CCC(NC(C)=O)(c3cccc(F)c3)CC2)cc1	7
35	Cc1cccc(OCc2ccc(C(=O)Nc3ccc(F)cc3)cc2)c1	15
36	COc1cc(/C=N/NC(=O)c2ccncc2)ccc1OC(=O)c1ccccc1Cl	21
37	Fc1ccc(CN2C3=NCCCN3c3ccccc32)cc1	9
38	Cc1cc(-n2cccn2)ccc1CN1CCN(C2CCCC2)C(CCO)C1 (centres undefined)	1
39	O=[N+]([O-])c1ccc(N2CCN(S(=O)(=O)c3ccccc3)CC2)cc1NCc1ccco1	20
40	Cc1ccc(OCCc2csc(N)n2)cc1	17
41	O=C(COC(=O)c1cccs1)NCCC1=CCCCC1	15
42	CCOc1ccc(CSCCNC(=S)Nc2ccc(OC)cc2)cc1	18
43	CCCOc1ccc(N2C(=O)CC(N(CCc3ccc(OC)cc3)C(=O)/C=C/C(=O)O)C2=O)cc1 (centres undefined)	7
44	Cc1cccc(C2c3[nH]c4ccccc4c3CCN2C(=O)c2cc(-c3cccn3C)n[nH]2)n1 (centres undefined)	-4
45	CCn1cc([C@@H]2C[C@H]3CN(Cc4cccc(Cl)c4)C(=O)[C@]34CCCN24)c(C)n1	11

# Random excerpt: 4 records from the list.
nr	SMILES	Biofilm kill mix
40	Cc1ccc(OCCc2csc(N)n2)cc1	17
33	COc1ccc(NC(=O)c2ccc3c(=O)n(-c4ccc(OC)cc4OC)c(=S)[nH]c3c2)c(OC)c1	9
45	CCn1cc([C@@H]2C[C@H]3CN(Cc4cccc(Cl)c4)C(=O)[C@]34CCCN24)c(C)n1	11
44	Cc1cccc(C2c3[nH]c4ccccc4c3CCN2C(=O)c2cc(-c3cccn3C)n[nH]2)n1 (centres undefined)	-4

# Remaining list, next part.
nr	SMILES	Biofilm kill mix
46	COc1ccc(C)cc1NC(=O)C1CCCN(S(=O)(=O)c2cccc3nonc23)C1 (centres undefined)	17
47	O=C(N/N=C/c1ccc(O)c(O)c1)c1cccc(S(=O)(=O)N2CCCCC2)c1	11
48	CCNC(=S)Nc1cccc(F)c1C	17
49	COc1cccc(/C=C(/C(=O)OCC(N)=O)c2ccccc2)c1	-6
50	NS(=O)(=O)c1ccc(N=Nc2c(O)ccc3ccccc23)cc1	18
51	O=[N+]([O-])c1cccc(/C=N/N2CCN(c3ccccn3)CC2)c1	11
52	Cc1nc2sc3c(c2c(=O)n1N)CCC3	14
53	COc1cccc(/C=N/NC(=O)c2ccc(=O)n(C)c2)c1OC	21
54	O=C(NCCCn1ccnc1)/C(=C\c1cccnc1)NC(=O)c1cccc(Br)c1	-11
55	NC1=NC(=O)/C(=C\c2ccco2)S1	18
56	Cc1[nH]nc(SCC(=O)N2CCOCC2)c1[N+](=O)[O-]	9
57	Cc1nc2ccccc2[nH]c1=O	3
58	CCC(=O)N1CCN(c2ccc(NC(=O)c3ccc(Br)o3)cc2)CC1	15
59	CSc1ccc(C(=O)C2CCCN(C(=O)c3ccsc3)C2)cc1 (centres undefined)	28
60	Cn1ncc2c(Nc3ccccc3Cl)nc(Cl)nc21	11

# An excerpt from above in order of formula weight, rising:
nr	SMILES	Biofilm kill mix
48	CCNC(=S)Nc1cccc(F)c1C	17
53	COc1cccc(/C=N/NC(=O)c2ccc(=O)n(C)c2)c1OC	21
58	CCC(=O)N1CCN(c2ccc(NC(=O)c3ccc(Br)o3)cc2)CC1	15

# (next part)
nr	SMILES	Biofilm kill mix
61	CN(C)c1ccc(NC(=O)C2CCCN(S(=O)(=O)c3ccccc3)C2)cc1 (centres undefined)	7
62	CCOC(=O)CNc1nc(Cl)nc(NC(C)(C)C)n1	10
63	CNC(=O)COC(=O)/C=C/c1cccs1	3
64	COc1ccc(OCc2ccc(C(=O)N3CCOCC3)cc2)cc1	14
65	O=C(Cc1noc2ccccc12)Nc1ccccn1	12
66	Cc1cc(C)n(CCN(C)C(=O)c2cc(COc3c(F)cccc3F)on2)n1	11
67	CC(Sc1ccccc1)C(=O)NN=C1CCCCCC1 (centres undefined)	3
68	CCNC(=O)NC(=O)C(C)OC(=O)CNS(=O)(=O)c1c(Cl)cc(Br)cc1Cl (centres undefined)	-1
69	CCCN1C(=O)/C(=C/c2c(N3CCNC(=O)C3CC(=O)OC)nc3c(C)cccn3c2=O)SC1=S (centres undefined)	16
70	O=C(CCCC(=O)OCC(Cl)=C(Cl)Cl)Nc1ccccc1	23
71	CCO[C@@H]1OC(C(N)=O)=C[C@H](c2ccc3c(c2)OCO3)[C@H]1CCCO	12
72	CC12CN3CCN(CC(C3)/C1=N/N=C/c1cccc([N+](=O)[O-])c1)C2	7
73	CC(Nc1n[nH]c(=O)[nH]c1=O)C(=O)N/N=C/c1ccccc1 (centres undefined)	15
74	COc1ccc(C2C(C(=O)/C=C/c3ccco3)=C(O)C(=O)N2CCN2CCOCC2)cc1OC (centres undefined)	16
75	O=C(CCC(=O)OCc1ccc(Cl)cc1)Nc1ccccc1	26

# Single entries from the results shown.
# Biofilm kill mix, compound 71 is entered as 12
# Biofilm kill mix, compound 62 is entered as 10
# Biofilm kill mix, compound 67 is entered as 3
# Biofilm kill mix, compound 65 is entered as 12
# Biofilm kill mix, compound 75 is entered as 26
# Biofilm kill mix, compound 68 is entered as -1

# Next records:
nr	SMILES	Biofilm kill mix
76	Cc1cc(N2CCCC2=O)ccc1S(=O)(=O)NCCOc1ccccc1	14
77	NC(=O)Cn1nc([N+](=O)[O-])nc1Oc1ccc(Br)cc1	29
78	CCOC(=O)C1=C(C)N(c2ccc(OCC)cc2)C(=O)/C1=C\c1ccco1	16
79	CC(=O)Nc1ccc(S(=O)(=O)NNC(=O)c2cccc(Cl)c2)cc1	17
80	Cn1c2ccccc2n2c(=O)c(=O)n(CC(=O)c3ccc(Cl)cc3)nc12	9
81	S=C(NC1CCCCC1)N1CCOCC1	13
82	O=C(Nc1ccc(S(=O)(=O)Nc2ncccn2)cc1)c1cccc(S(=O)(=O)N2CCOCC2)c1	6
83	C/C(=N/NC(=O)c1ccc(Br)o1)c1ccncc1	5
84	O=C(O)C(Cc1ccccc1)n1c(=S)[nH]c2ccccc2c1=O (centres undefined)	2
85	CC(=O)c1sc2nc(CSc3nnnn3-c3ccccc3)[nH]c(=O)c2c1C	21
86	CN1/C(=C\C(=O)c2cccnc2)C(C)(C)c2ccccc21	20
87	CCCn1nc(C(=O)Nc2nnc(CC)s2)c2ccccc2c1=O	-1
88	CC(NC(=O)Cc1ccccc1[N+](=O)[O-])c1ccccc1 (centres undefined)	5
89	Cc1cc(N2CCN(C(=O)c3ccco3)CC2)c2ccccc2n1	17
90	Cc1ccccc1C(=O)N1CCc2c([nH]c3ccccc23)C1C(F)(F)F (centres undefined)	10

# Next section.
nr	SMILES	Biofilm kill mix
91	O=C(O)C1C2CCC(O2)C1C(=O)Nc1ccc(O)cc1 (centres undefined)	20
92	CCOC(=O)c1cncc(C#CCOC(=O)Nc2ccc(OC(F)(F)F)cc2)c1	20
93	COc1ccc2o/c(=N/NC(=O)c3cccs3)c(C(N)=O)cc2c1	9
94	CCCCNC(=O)Nc1ccc(C2SCCS2)cc1	20
95	Cc1c(Cl)cccc1NC(=S)N1CCCN(Cc2ccc(F)cc2)C1	21
96	CCOc1ccc(C(=O)Nc2cccc([N+](=O)[O-])c2)cc1Br	11
97	O=C(CSCc1ccc(Cl)cc1)N/N=C/c1ccco1	13
98	CC(C)OC(=O)/C(C#N)=C/c1c[nH]c2ccccc12	14
99	Oc1ccccc1/C=N/NC(=S)NC1CC2CC1C1C=CCC21 (centres undefined)	28
100	O=C(/C=C/c1ccccc1Cl)Nn1cnc2ccccc2c1=O	15
101	O=C(CC(Nc1cccc(Cl)c1Cl)C(=O)O)c1ccccc1 (centres undefined)	-1
102	CC1CCC2(CC1)NC(=O)N(CC(=O)N1CCc3ccccc3C1)C2=O (centres undefined)	5
103	CCc1nnc(NC(=O)CSc2nnc(CNc3ccc(OC)cc3)n2CC)s1	6
104	CC(C(=O)N1CCN(c2ccc([N+](=O)[O-])cc2)CC1)N1C(=O)C2CC=CCC2C1=O (centres undefined)	7
105	CCOc1ccccc1-n1c(=S)sc2c(=O)n(-c3ccc(C)cc3)c(=S)[nH]c21	6

# Further compounds follow:
nr	SMILES	Biofilm kill mix
106	Cc1ccc(NC(=O)Cn2nc(C)c([N+](=O)[O-])c2C)cc1Cl	13
107	O=[N+]([O-])c1cnccc1Nc1ccc(F)cc1	15
108	Cc1ccc([N+](=O)[O-])cc1N(CC(=O)N1CCCCC1)S(C)(=O)=O	13
109	Cc1ccc(NC(=O)Nc2nc3ccccc3s2)cc1NC(=O)Nc1nc2ccccc2s1	10
110	Cc1cc(C)nc(SCc2ccc(C(=O)NN=C3CCCC3)cc2)n1	12
111	CS(=O)(=O)N(CC(=O)NCc1ccc2c(c1)OCO2)C1CCCCC1	4
112	O=C(Nc1ccc(Br)cc1)C1CCN(C(=O)c2ccc(F)cc2)CC1	23
113	CC(C)(C)n1cnnc1Sc1ncccc1[N+](=O)[O-]	7
114	COc1cc(/C=N/NC(=O)CCc2n[nH]c(=O)[nH]c2=O)ccc1O	17
115	CCc1ccc(C2NC(=S)NC3=C2C(=O)CC(C)(C)C3)cc1 (centres undefined)	3
116	Cn1ncc2c(NCc3ccccc3)ncnc21	18
117	Nn1cc(-c2ccccc2)nc1SCC(=O)Nc1ccc2c(c1)OCO2	19
118	CCc1ccc(NC(=O)CSc2ccccn2)cc1	12
119	CC(C)(C)Nc1c([N+](=O)[O-])c(=O)sc2ccccc12	10
120	COc1cc(OC)cc(C(=O)NC(=S)Nc2nnn(C)n2)c1	35

# Next section
nr	SMILES	Biofilm kill mix
121	COc1cc(SC)ccc1C(=O)Nc1cccc(C)n1	16
122	COc1ccc(N2C(=O)CS/C2=N\C(=S)Nc2ccccc2)cc1	14
123	O=C(COC(=O)CC1c2ccccc2CCN1S(=O)(=O)c1ccc(F)cc1)Nc1ccccc1 (centres undefined)	10
124	C/C(=N\NC(=O)c1cc(C(C)C)[nH]n1)c1ccco1	9
125	CCc1nnc(NC(=O)c2ccc3c(=O)n4c(nc3c2)CCCCC4)s1	16
126	CC(C)CCN1CCN(Cc2ccc(N3CCNC3=O)cc2)CC1CCO (centres undefined)	7
127	O=c1cc(-c2ccc(Cl)cc2)oc(=O)[nH]1	23
128	O=C(CCc1ccccc1)Nc1ccc(N2CCOCC2)cc1	9
129	O=C1CCCCC1S(=O)(=O)c1ccccc1 (centres undefined)	9
130	Cc1ccc(NC(=O)N2CCCCC2)cc1[N+](=O)[O-]	14
131	COC(=O)c1ccccc1-c1ccc(C(c2c(C)[nH][nH]c2=O)c2c(C)[nH][nH]c2=O)o1	-1
